Screening data deposited in PubChem BioAssay by Broad Institute.
UUG fidelity: modulators of start codon recognition fidelity in yeast; S. cerevisiae UUG-firefly luciferase reporter, luminescence/redox ratio; 0.13% of 350,000 active; activity score, % at 18.7 µM;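 active = replicate mean at a twofold rise or more, about +100% in these data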;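 note: firefly luciferase made from a UUG start codon reports start codon fidelity; reporter light over untreated wells divided by growth signal over untreated wells; some hits fall short of that in this replicate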
* hit, by the source's call.

SMILES	UUG fidelity
O=C(Nc1ccccc1F)N1[C@@H]2CNc3ccccc3[C@@H]2[C@@H]1CO	14
CCC(=O)N1CCCCN2[C@H](C1)[C@@H](c1ccc(-c3cccc(C(=O)N(C)C)c3)cc1)[C@@H]2CO	-2
C[C@@H]1CN([C@@H](C)CO)C(=O)c2cccc(NC(=O)c3nc4ccccc4s3)c2O[C@H]1CN(C)CC1CCCCC1	0
CC(C)NC(=O)NC[C@H]1[C@H](c2ccccc2)[C@H](CO)N1C(=O)c1ccccc1	-8
COC(=O)C[C@H]1CC[C@@H]2[C@H](COc3ccc(NC(=O)Nc4cccc(F)c4)cc3C(=O)N2C)O1	-2
CS(=O)(=O)N1CCCCN2[C@H](CO)[C@@H](c3ccc(Br)cc3)[C@H]2C1	5
Cc1ccccc1-c1ccc([C@@H]2[C@@H](CO)N3CCCCN(C(=O)Nc4ccc(F)cc4)C[C@H]23)cc1	17
C[C@H](CO)N1C[C@H](C)[C@H](CN(C)Cc2ccc(Cl)c(Cl)c2)Oc2ccc(NS(=O)(=O)c3cn(C)cn3)cc2C1=O	-12
Cc1noc(C)c1NC(=O)N(C)C[C@@H]1Oc2ccc(NC(=O)CCCN(C)C)cc2C(=O)N([C@@H](C)CO)C[C@H]1C	-11
CO[C@H]1CN(C)C(=O)c2ccc(NC(=O)Nc3c(C)noc3C)cc2OC[C@@H](C)N(CCC(F)(F)F)C[C@@H]1C	7
CO[C@H]1CN(C)C(=O)c2cc(NC(=O)c3ccccc3F)ccc2OC[C@H](C)N(CC2CC2)C[C@@H]1C	4
COC(=O)N(C)C[C@H]1OCc2ccccc2-c2c(n(C)c3ccccc23)C(=O)N([C@@H](C)CO)C[C@@H]1C	7
C/C=C/c1ccc([C@@H]2[C@H](CO)N(S(C)(=O)=O)[C@H]2CN(C)C(=O)CC)cc1	2
COc1ccc(NC(=O)N2C[C@@H]3[C@H](c4ccccc42)[C@H](CO)N3C(=O)C2CC2)cc1	11
CC(C)NC(=O)N1[C@H](CO)[C@@H](c2ccccc2)[C@@H]1CNC(=O)CN(C)C	10
CN1CCN(C(=O)C[C@@H]2CC[C@H]3[C@@H](COC[C@@H](O)CN3C(=O)C3CCCC3)O2)CC1	-17
CCS(=O)(=O)Nc1ccc2c(c1)C(=O)N(C)C[C@H](OC)[C@H](C)CN(Cc1nccs1)[C@H](C)CO2	-8
C[C@H](CO)N1C[C@H](C)[C@@H](CN(C)Cc2ccccc2)Oc2ccc(NC(=O)C3CCCCC3)cc2CC1=O	6
COCC(=O)N1[C@H](CO)[C@@H]2c3ccccc3N(C(=O)c3ccncc3)C[C@@H]21	-19
Cc1ccccc1-c1ccc([C@H]2[C@H]3CN(S(=O)(=O)c4ccc(F)cc4)CCCCN3[C@H]2CO)cc1	1
Cc1ccc(-c2ccc([C@@H]3[C@H]4CN(C(=O)Nc5cccc(F)c5)CCCCN4[C@H]3CO)cc2)cc1	5
CNC[C@H]1Oc2ccc(NS(=O)(=O)c3cccs3)cc2C(=O)N([C@@H](C)CO)C[C@@H]1C	-7
C[C@H]1CN([C@@H](C)CO)C(=O)c2cccc(NC(=O)Nc3ccc(F)cc3)c2O[C@@H]1CN(C)Cc1ccc(Cl)c(Cl)c1	0
COc1ccc(NC(=O)N(C)C[C@@H]2OCc3ccccc3-c3c(n(C)c4ccccc34)C(=O)N([C@H](C)CO)C[C@H]2C)cc1	12
CNC[C@H]1Oc2ccc(NS(=O)(=O)c3ccc(OC)cc3)cc2C(=O)N([C@@H](C)CO)C[C@H]1C	-4
SMILES	UUG fidelity
N#Cc1ccc(-c2ccc([C@H]3[C@H]4CN(C(=O)Nc5ccc(F)cc5)CCCCN4[C@H]3CO)cc2)cc1	-3
O=S(=O)(c1ccccc1)N1CCCCN2[C@@H](CO)[C@@H](c3ccc(-c4ccccc4F)cc3)[C@@H]2C1	-3
O=C(c1cnccn1)N1CC[C@@H]2[C@H](CO)Nc3ccc(-c4cccc(F)c4)cc3[C@@H]21	-16
O=C(c1ccc(F)cc1)N1CC[C@@H]2[C@H](CO)Nc3ccc(C#Cc4ccccc4F)cc3[C@@H]21	-18
C[C@H]1CN([C@@H](C)CO)C(=O)c2cc(NC(=O)Cc3ccccc3)ccc2O[C@@H]1CN(C)Cc1ccc(Oc2ccccc2)cc1	-5
OC[C@@H]1[C@H](c2ccc(C#Cc3ccccc3)cc2)[C@H]2CN(CC3CCOCC3)CCCCN12	-1
COc1ccc(NC(=O)N2C[C@@H]3[C@H](c4ccccc42)[C@@H](CO)N3C(=O)C2CCCC2)cc1	18
CN(C)CC#Cc1ccc([C@@H]2[C@@H](CO)N3CCCCN(CC4CCOCC4)C[C@@H]23)cc1	7
CN1c2ccc(-c3cccc(C#N)c3)cc2[C@@H]2[C@@H](CCN2C(=O)NC2CCCCC2)[C@@H]1CO	-11
CCCNC(=O)N1C[C@H](O)COC[C@@H]2O[C@H](CC(=O)N3CCCCC3)CC[C@H]21	7
CN1C(=O)c2cc(NC(=O)Nc3cccc(Cl)c3)ccc2OC[C@H]2O[C@H](CC(=O)NCCc3ccncc3)CC[C@H]21	4
COc1ccc(CN(C)C[C@H]2Oc3ccc(NS(=O)(=O)c4ccc(C)cc4)cc3CC(=O)N([C@H](C)CO)C[C@H]2C)cc1	12
CO[C@@H]1CN(C)C(=O)c2cc(NC(=O)C3CC3)ccc2OC[C@H](C)N(Cc2ccncc2)C[C@@H]1C	-7
COCC(=O)Nc1ccc2c(c1)C(=O)N(C)C[C@@H](OC)[C@@H](C)CN(Cc1cccnc1)[C@H](C)CO2	4
O=C(C[C@H]1CC[C@@H]2[C@H](COC[C@H](O)CN2S(=O)(=O)c2ccccc2)O1)Nc1ccc(-c2ccccc2)cc1	3
COc1ccc(CN(C)C[C@@H]2Oc3ccc(NC(=O)Nc4ccc(OC)cc4)cc3CC(=O)N([C@H](C)CO)C[C@H]2C)cc1	4
CCCNC(=O)N1[C@H](CO)[C@H](c2ccc(C3=CCCC3)cc2)[C@H]1CNC(=O)CC	-7
C[C@@H]1CN([C@@H](C)CO)C(=O)Cc2cc(NC(=O)CCC(F)(F)F)ccc2O[C@@H]1CN(C)Cc1ccc(C(F)(F)F)cc1	2
CNC[C@@H]1Oc2ccc(NC(=O)Nc3ccc(F)cc3)cc2C(=O)N([C@H](C)CO)C[C@@H]1C	-1
CN(C)CC#Cc1ccc([C@@H]2[C@@H](CO)N3CCCCN(C(=O)C4CCC4)C[C@@H]23)cc1	17
CN(C)CC(=O)N1CCCCN2[C@H](CO)[C@@H](c3ccc(-c4cncnc4)cc3)[C@H]2C1	-17
COCC(=O)Nc1ccc2c(c1)OC[C@H](C)N(C(=O)c1cccnc1)C[C@@H](C)[C@H](OC)CN(C)C2=O	1
O=C(c1cccc(F)c1)N1CCCCN2[C@@H](CO)[C@@H](c3ccc(-c4ccncc4)cc3)[C@@H]2C1	1
COc1ccccc1-c1ccc([C@@H]2[C@H]3CN(C(=O)NC4CCCC4)CCCCN3[C@H]2CO)cc1	0
O=S(=O)(c1ccccc1)N1CCCCN2[C@H](C1)[C@@H](c1ccc(C#CC3CCCC3)cc1)[C@@H]2CO	-3
SMILES	UUG fidelity
C[C@@H]1CN([C@@H](C)CO)C(=O)c2cc(NC(=O)CCC(F)(F)F)ccc2O[C@H]1CN(C)Cc1ccc(-c2ccccc2)cc1	10
C[C@@H]1CN([C@H](C)CO)C(=O)CCCn2nncc2CO[C@H]1CN(C)C(=O)Nc1ccc(C(C)(C)C)cc1	23
Cn1cnc(S(=O)(=O)N2CC[C@@H]3[C@H]2c2cc(-c4cccc(F)c4)ccc2N[C@@H]3CO)c1	-6
C[C@@H]1CN([C@@H](C)CO)C(=O)Cc2cc(NC(=O)NC3CCCCC3)ccc2O[C@@H]1CN(C)S(=O)(=O)c1ccc(F)cc1	18
Cc1noc(C)c1S(=O)(=O)Nc1ccc2c(c1)C(=O)N([C@@H](C)CO)C[C@@H](C)[C@@H](CN(C)Cc1ccc(C(=O)Nc3ccccc3N)cc1)O2	9
Cc1noc(C)c1NC(=O)Nc1ccc2c(c1)C(=O)N([C@@H](C)CO)C[C@@H](C)[C@H](CN(C)C(=O)Nc1ccc(C(F)(F)F)cc1)O2	-7
Cc1ccccc1-c1ccc([C@H]2[C@@H](CO)N3CCCCN(S(=O)(=O)Cc4ccccc4)C[C@@H]23)cc1	3
C[C@@H]1CN([C@@H](C)CO)C(=O)c2cccc(NS(=O)(=O)c3cccs3)c2O[C@@H]1CN(C)C(=O)Nc1ccc(C(F)(F)F)cc1	-3
Cc1noc(C)c1S(=O)(=O)Nc1cccc2c1O[C@H](CN(C)C(=O)Nc1cccc3ccccc13)[C@H](C)CN([C@@H](C)CO)C2=O	0
O=C(C[C@H]1CC[C@H]2[C@@H](COC[C@@H](O)CN2Cc2cc(F)cc(F)c2)O1)NCc1cccc(F)c1	-8
C/C=C/c1ccc([C@@H]2[C@@H](CN(C(=O)COC)C(C)C)N(C(C)=O)[C@H]2CO)cc1	-2
CCC(=O)Nc1ccc2c(c1)OC[C@@H](C)N(Cc1ccccc1OC)C[C@H](C)[C@@H](OC)CN(C)C2=O	-2
COc1ccc(S(=O)(=O)Nc2ccc3c(c2)C(=O)N([C@H](C)CO)C[C@@H](C)[C@H](CN(C)Cc2ccc4c(c2)OCO4)O3)cc1	4
Cc1ccccc1S(=O)(=O)N1CCCCN2[C@H](CO)[C@H](c3ccc(-c4cncnc4)cc3)[C@H]2C1	-1
C[C@H]1CN([C@@H](C)CO)C(=O)c2cc(NC(=O)CCCN(C)C)ccc2O[C@H]1CN(C)S(=O)(=O)c1ccc(F)cc1	-6
O=C(Nc1ccccc1)N1CCCCN2[C@@H](CO)[C@@H](c3ccc(Br)cc3)[C@@H]2C1	0
COC(=O)N(C)C[C@@H]1OCc2ccccc2-c2ccccc2C(=O)N([C@H](C)CO)C[C@H]1C	2
Cc1ccc(S(=O)(=O)Nc2ccc3c(c2)CC(=O)N([C@H](C)CO)C[C@H](C)[C@H](CN(C)Cc2ccncc2)O3)cc1	3
C[C@@H](O)C#Cc1ccc([C@H]2[C@@H](CO)N3CCCCN(C(=O)c4ccc(F)cc4)C[C@@H]23)cc1	11
O=C(C[C@H]1CC[C@H]2[C@@H](COC[C@H](O)CN2C(=O)Nc2ccc(F)cc2)O1)NCCc1ccncc1	-14
C[C@H]1CN([C@@H](C)CO)C(=O)c2ccccc2-c2ccccc2CO[C@H]1CN(C)S(=O)(=O)c1ccc(C#N)cc1	10
O=C(C1CCCC1)N1C[C@H]2[C@@H](c3ccccc31)[C@@H](CO)N2C(=O)c1ccccc1F	33
COc1ccc(CN(C)C[C@@H]2Oc3ccc(NS(=O)(=O)c4ccc(F)cc4)cc3C(=O)N([C@@H](C)CO)C[C@H]2C)cc1	-6
COc1ccccc1CN1CC[C@H]2[C@H](CO)Nc3ccc(-c4ccc(C(=O)N(C)C)cc4)cc3[C@H]21	1
O=S(=O)(Cc1ccccc1)N1CCCCN2[C@H](CO)[C@@H](c3ccc(-c4ccc(F)cc4)cc3)[C@H]2C1	8
SMILES	UUG fidelity
C[C@H]1CN([C@@H](C)CO)C(=O)c2cc(NC(=O)Nc3ccc(F)cc3)ccc2O[C@@H]1CN(C)Cc1ccc(C(=O)O)cc1	2
C[C@@H]1CN([C@@H](C)CO)C(=O)Cc2cc(NS(=O)(=O)c3ccccc3)ccc2O[C@H]1CN(C)CC1CC1	-11
O=S(=O)(c1cccs1)N1CCCCN2[C@H](CO)[C@H](c3ccc(/C=C/c4ccccc4)cc3)[C@@H]2C1	-13
CCCNC(=O)[C@H]1[C@H](CO)[C@H]2Cn3c(cccc3=O)[C@H]2N1CC1CCCCC1	24
COc1ccc(CN(C)C[C@H]2Oc3ccc(NS(C)(=O)=O)cc3C(=O)N([C@H](C)CO)C[C@H]2C)cc1	-4
O=C(Cc1ccccc1)N1C[C@@H]2[C@H](c3ccccc31)[C@@H](CO)N2C(=O)C1CCCC1	5
C[C@@H]1CN([C@@H](C)CO)C(=O)c2cc(N(C)C)ccc2O[C@@H]1CN(C)Cc1ccc(-c2ccccc2)cc1	-6
O=C(NC[C@H]1[C@H](c2ccccc2)[C@@H](CO)N1C(=O)Cc1cccnc1)C1CCC1	-4
C[C@H](CO)N1C[C@H](C)[C@H](CN(C)Cc2ccc(Oc3ccccc3)cc2)Oc2c(NC(=O)Nc3ccc(F)cc3)cccc2C1=O	44
Cc1noc(C)c1S(=O)(=O)Nc1ccc2c(c1)C(=O)N([C@@H](C)CO)C[C@H](C)[C@@H](CN(C)C(=O)Nc1cccc3ccccc13)O2	6
COCC(=O)Nc1ccc2c(c1)OC[C@@H](C)N(Cc1ccccn1)C[C@@H](C)[C@H](OC)CN(C)C2=O	-4

Entries listed so far that have an aryl methoxy group (12):
SMILES	UUG fidelity
COc1ccc(NC(=O)N2C[C@@H]3[C@H](c4ccccc42)[C@H](CO)N3C(=O)C2CC2)cc1	11
COc1ccc(NC(=O)N(C)C[C@@H]2OCc3ccccc3-c3c(n(C)c4ccccc34)C(=O)N([C@H](C)CO)C[C@H]2C)cc1	12
CNC[C@H]1Oc2ccc(NS(=O)(=O)c3ccc(OC)cc3)cc2C(=O)N([C@@H](C)CO)C[C@H]1C	-4
COc1ccc(NC(=O)N2C[C@@H]3[C@H](c4ccccc42)[C@@H](CO)N3C(=O)C2CCCC2)cc1	18
COc1ccc(CN(C)C[C@H]2Oc3ccc(NS(=O)(=O)c4ccc(C)cc4)cc3CC(=O)N([C@H](C)CO)C[C@H]2C)cc1	12
COc1ccc(CN(C)C[C@@H]2Oc3ccc(NC(=O)Nc4ccc(OC)cc4)cc3CC(=O)N([C@H](C)CO)C[C@H]2C)cc1	4
COc1ccccc1-c1ccc([C@@H]2[C@H]3CN(C(=O)NC4CCCC4)CCCCN3[C@H]2CO)cc1	0
CCC(=O)Nc1ccc2c(c1)OC[C@@H](C)N(Cc1ccccc1OC)C[C@H](C)[C@@H](OC)CN(C)C2=O	-2
COc1ccc(S(=O)(=O)Nc2ccc3c(c2)C(=O)N([C@H](C)CO)C[C@@H](C)[C@H](CN(C)Cc2ccc4c(c2)OCO4)O3)cc1	4
COc1ccc(CN(C)C[C@@H]2Oc3ccc(NS(=O)(=O)c4ccc(F)cc4)cc3C(=O)N([C@@H](C)CO)C[C@H]2C)cc1	-6
COc1ccccc1CN1CC[C@H]2[C@H](CO)Nc3ccc(-c4ccc(C(=O)N(C)C)cc4)cc3[C@H]21	1
COc1ccc(CN(C)C[C@H]2Oc3ccc(NS(C)(=O)=O)cc3C(=O)N([C@H](C)CO)C[C@H]2C)cc1	-4

A portion of the library, so the mix of outcomes need not match the whole.
